Assay outcomes (PubChem)
AID504770 = growth inhibitors of E. coli YBA685 in a screen for V. cholerae RctB (chromosome II replication) inhibitors. z-score (concentration not given with the values). E. coli YBA685 rctB-dependent plasmid, OD600 growth, 3 h; active compounds read low. 130,000 tested, 0.27% active;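 active means z-score under -2 on both plates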;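 further: wells of about 30 µL received 100 nL stock; score is relative to mean and SD of the test wells; the first replicate is given; strong numbers were not always called active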
Ba CapD inh = blocks the Bacillus anthracis CapD enzyme; purified CapD enzyme, fluorescence intensity read-out; active compounds read low; some hits fall short of the stated cut; z-score (no concentration beside the values); 140,000 tested, 0.23% active; AID 492967;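 active means z-score under -4 in either of two replicates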;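 further: stock transfer was 100 nL into about 40 µL; score is relative to mean and spread of the plate; one replicate is shown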
Active calls of the source: *; . = not tested or not shown; & = joins results of further samples.

SMILES	AID504770	Ba CapD inh
COC(=O)c1cn(CC(=O)N2CCCCC2C)c2ccccc12 (configuration not stated)	-0.7	0.31
CCCCCCOC(=O)C1=C(C)NC(=O)NC1c1cc2c(cc1Br)OCO2 (configuration not stated)	.	-0.3
N#CCNC(=O)c1sc2ccccc2c1Cl	0.55	.
CC(C)N(C(=O)Cn1nnc2ccccc21)C(C(=O)NCc1ccco1)c1ccccc1 (configuration not stated)	-0.55	.
O=C(O)c1ccc(Cn2c(SCc3ccccc3F)nc3ccncc32)cc1	-0.65	-0.16
Cc1c(C(=O)N2CCN(c3ccccn3)CC2)sc2ncnc(N3CCOCC3)c12	.	-0.11
CCOc1ccc(NC(=O)CSc2nnc(CNC(=O)c3cccc([N+](=O)[O-])c3C)n2-c2cccc(C)c2)cc1	.	-0.46
COc1ccc(OC)c(S(=O)(=O)NCc2cn3ccccc3n2)c1	-0.45	0.21
CN(C(=O)CSc1nc2ncccc2[nH]1)C1CCCCC1	0.45	1.1
Cc1cc(C)cc(NC(=O)CN2CCC(NC(=O)Cc3ccccc3)CC2)c1	1.4	.
COC(=O)c1c(C)oc(C)c1S(=O)(=O)N1CCC(O)(c2ccc(Cl)cc2)CC1	2	-1.1
O/N=C/C1=CC(CC(O)CN2CCOCC2)c2ccccc21 (configuration not stated)	0	.
Cc1cc(/N=C/N(C)C)on1	.	0.35
O=S(=O)(NC1Cc2ccccc2C1)c1cccc2nonc12	.	-0.05
O=C(Cn1c(CC(=O)N2CCCC2)nc2ccccc21)NCc1ccccc1	-0.05	.
COc1ccc(OC)c(-n2c(=S)[nH]c3cc(C(=O)NCCSCc4ccccc4)ccc3c2=O)c1	.	-1.8
CCc1ccc(C2CC(=O)NC(SCC(=O)OC)=C2C#N)cc1 (configuration not stated)	1.1	-0.2
COC(=O)CCn1cc(F)c(N)nc1=O	0.7	0.57
N#CC1=C(N)OC2=C(C(=O)CC(c3ccco3)C2)C12C(=O)Nc1ccc(Br)cc12 (configuration not stated)	.	-0.5
CCc1ccc(/C=C2/C(=O)N(C)c3ccccc32)cc1	0.5	.

Part of the list above in order of SMILES length, low to high.
SMILES	AID504770	Ba CapD inh
Cc1cc(/N=C/N(C)C)on1	.	0.35
N#CCNC(=O)c1sc2ccccc2c1Cl	0.55	.
CN(C(=O)CSc1nc2ncccc2[nH]1)C1CCCCC1	0.45	1.1
CCc1ccc(/C=C2/C(=O)N(C)c3ccccc32)cc1	0.5	.
CCc1ccc(C2CC(=O)NC(SCC(=O)OC)=C2C#N)cc1 (configuration not stated)	1.1	-0.2
COc1ccc(OC)c(S(=O)(=O)NCc2cn3ccccc3n2)c1	-0.45	0.21
O=C(O)c1ccc(Cn2c(SCc3ccccc3F)nc3ccncc32)cc1	-0.65	-0.16
O=C(Cn1c(CC(=O)N2CCCC2)nc2ccccc21)NCc1ccccc1	-0.05	.
CCCCCCOC(=O)C1=C(C)NC(=O)NC1c1cc2c(cc1Br)OCO2 (configuration not stated)	.	-0.3
Cc1cc(C)cc(NC(=O)CN2CCC(NC(=O)Cc3ccccc3)CC2)c1	1.4	.
Cc1c(C(=O)N2CCN(c3ccccn3)CC2)sc2ncnc(N3CCOCC3)c12	.	-0.11
CC(C)N(C(=O)Cn1nnc2ccccc21)C(C(=O)NCc1ccco1)c1ccccc1 (configuration not stated)	-0.55	.
COC(=O)c1c(C)oc(C)c1S(=O)(=O)N1CCC(O)(c2ccc(Cl)cc2)CC1	2	-1.1
N#CC1=C(N)OC2=C(C(=O)CC(c3ccco3)C2)C12C(=O)Nc1ccc(Br)cc12 (configuration not stated)	.	-0.5
COc1ccc(OC)c(-n2c(=S)[nH]c3cc(C(=O)NCCSCc4ccccc4)ccc3c2=O)c1	.	-1.8
CCOc1ccc(NC(=O)CSc2nnc(CNC(=O)c3cccc([N+](=O)[O-])c3C)n2-c2cccc(C)c2)cc1	.	-0.46

(list continues)
SMILES	AID504770	Ba CapD inh
CC(C)C/C(=N\O)c1cn(C)c2ccccc12	-0.1	-0.09
CCOC(=O)c1c[nH]c2ccccc2c1=O	-0.8	-0.28&-0.38
O=C(O)c1ccc2c3c1c(-c1ccc4c(=O)n5c6ccccc6nc5c5ccc(C(=O)O)c1c45)ccc3c(=O)n1c3ccccc3nc21	.	-3.3
CCCCNC(=O)c1c(N)n(/N=C/c2cccnc2)c2nc3ccccc3nc12	-0.05	.
Cc1[nH]c2ccccc2c1/C=C(\C#N)C(=O)NCc1ccco1	-0.25	.
O=C(NCCCN1CCCC1)c1cc2c(s1)-c1ccccc1SC2	0.4	9.3
O=C(NCc1cccnc1)c1nc2ccccc2c(=O)[nH]1	-0.85	-0.58
CC(C)(C)C1=Nn2c(nnc2-c2ccncc2)SC1	.	-0.45
Cc1c(C(=O)N2CCCC2)sc(NC(=O)c2cccs2)c1C#N	-0.95	-3.5
C=CCN(CC=C)S(=O)(=O)c1ccc(C(=O)Nc2nc3ccc(S(C)(=O)=O)cc3s2)cc1	.	0.35
COc1cccc(NC(=O)CSc2nc3ccccc3c(=O)n2CCCC(=O)NCc2cccc(Cl)c2)c1	.	-0.48
CCOc1ccc(-n2c(O)c(/C=N/Nc3nc(C)cc(C)n3)c3ccccc3c2=O)cc1	0.35	.
O=C1CNC(=S)N1c1ccccc1	-0.65&0.3	-0.025
CC(=O)NC(NC(C)=O)c1ccc2c(c1)OCO2	-0.05	.
O=C(Cn1c(-c2cccs2)cc2ccccc21)NCCC1=CCCCC1	-0.45	33
O=C(NCCCn1ccnc1)c1cc2ccccc2oc1=O	-2	26
COC(=O)c1nn(-c2ccc(Cl)cc2)c(=O)cc1Oc1ccc(C)cc1	.	0.43
CN(C)N=Nc1ccc(S(N)(=O)=O)cc1	-0.35	.
O=C(NCCCN1CCN(c2ccc(F)cc2)CC1)c1cccn2c(=O)c3ccccc3nc12	0.25	0.58
NC(=O)C1(C(N)=O)CCC1	-0.05	.
CC1=CC(C)C2(CO)COC(c3ccccc3)C1C2C (configuration not stated)	.	-0.39
CN1C(=O)C(=Cc2ccc(O)cc2)C(=O)N(C)C1=S	2.5	-1.1
O=C1c2cccc(Oc3ccccc3)c2C(=O)c2c(Oc3ccccc3)cccc21	.	0.015
Cc1ccc(-c2ccc(C#N)c(=O)n2CC(=O)N(C)C)cc1	-1.5	.
COc1ccc(S(=O)(=O)NCCSc2cc(C(F)(F)F)nc3ccccc23)cc1	.	0.17
Cc1ccc(C)n1CCN1CCN(C(=O)c2cccc(C(F)(F)F)c2)CC1	0.35	-0.085
Cc1ccc(CCNC(=O)CC(C)(C)CC2=NS(=O)(=O)c3ccccc3N2)cc1	-0.5	-0.12
CCOc1ccccc1NC(=O)COC(=O)C1CCC(=O)N1 (configuration not stated)	-0.6	.
CCc1c(C)nc(N2CCOCC2)[nH]c1=O	1.8	-0.045
O=C(CSc1nc2ccccc2[nH]1)NO	-1	-0.65
Cn1cnnc1SCc1nc(-c2ccsc2)no1	-0.45	1.1
Cc1csc(/C=C2\CCc3c(cnc4ccc5ccccc5c34)C2=O)c1	-0.7	-0.28
COc1ccc(S(=O)(=O)N2CCN(Cc3cc4ccccc4o3)CC2)cc1OC	.	-0.53
CCC(C)c1ccc(NS(=O)(=O)c2ccc(Oc3cccc(Cl)c3C#N)cc2)cc1 (configuration not stated)	.	-0.04
COC(=O)C1=C(CN2CCCC2)NC(=O)NC1c1ccc(OC)cc1 (configuration not stated)	-1.4	.
COc1cc(OC)cc(C(=O)Nc2cc(C(=O)Nc3ccccc3F)ccc2N2CC3CC(C2)c2cccc(=O)n2C3)c1 (configuration not stated)	.	0.025
CCCN1CCC(N(C(=O)Nc2ccccc2C(=O)NCCc2ccccc2)C2CC2)CC1	.	0.3
C=CCNc1ncnc2c1cnn2C	2.1	0.87
CCOC(=O)C1=C(C)N=c2s/c(=C/c3ccc(OC)cc3C)c(=O)n2C1c1cc(OC)ccc1OC (configuration not stated)	.	-0.2
CCOC(=O)C1=C(N)OC2=C(C(=O)CCC2)C1c1cccs1 (configuration not stated)	1.4	-0.78
Cc1ccc(NNC(=O)c2ccno2)cc1Cl	0.9	0.59
CC(C)(C)C(=O)C1=C(O)C(=O)N(Cc2ccccc2)C1c1cccnc1 (configuration not stated)	-0.5	.
O=C1c2cccnc2C(Nc2ccc(Br)cc2)N1C1CCCCC1 (configuration not stated)	-1.4	0.08
CC(=O)NS(=O)(=O)c1ccc(NC(=O)c2c(-c3ccccc3)noc2C)cc1	0.4	0.37
Cc1noc(C)c1/C=N/NC(=S)NCCc1ccccc1	-0.75	.
NC(=Nc1ccccc1)C(F)(F)F	-0.3	-0.72
O=S(=O)(c1cc(Br)c(Cl)s1)N1CCN(c2ncc(C(F)(F)F)cc2Cl)CC1	.	-0.85
S=C(Nc1ccc(Cl)cc1)N1CCN=C1Nc1ccc(Cl)cc1	1.7	-0.06
COc1ccc(Cc2n[nH]c(=O)c3ccccc23)cc1OC	2.1	-0.28
O=C1OC2C(C(=O)O)Sc3c(sc(=O)n3-c3ccccc3)C2c2cc(Br)ccc21 (configuration not stated)	-1.9	-0.33
CCOC(=O)c1c(NC(=O)CSc2nnc(CNC(=O)c3ccco3)n2Cc2ccccc2)sc2c1CCC2	.	4.5
N#CC(c1nc2ccccc2nc1Cl)S(=O)(=O)c1ccccc1 (configuration not stated)	-0.35	.
Cc1cccc(N2CCN(C(=O)c3cccc(N4C(=O)C5CC=CCC5C4=O)c3)CC2)c1C (configuration not stated)	.	-1.2
CC1N=C(SCc2c(F)cccc2Cl)N2C(C)N=C(SCc3c(F)cccc3Cl)N12 (configuration not stated)	.	0.005
COc1cc(OC)nc(-c2ccc(C(=O)N3CCN(CC(=O)N4CCOCC4)CC3)cc2)n1	.	-0.84
CN1/C(=c2/sc(=C3C(=O)NC(=S)NC3=O)n(C)c2=O)Sc2ccccc21	1.1	.
O=[N+]([O-])c1ccc(N2CCCCC2)c(Cl)c1	.	-0.24
Cc1ccc(F)cc1NC(C#N)c1ccccc1 (configuration not stated)	0.1	0.14
CC(C)(CN1CCN(C(c2ccccc2)c2ccccc2)CC1)NS(=O)(=O)c1ccccc1	-0.35	-0.22
CC(=Nc1ccccc1)C1=C(O)COC1=O	-0.9	-0.35

Next part.
SMILES	AID504770	Ba CapD inh
Cc1ccccc1OCC(=O)Nc1ccccc1Nc1ccccc1	-0.5	-0.15
CC1CC(C)CN(C(=O)CSc2nnc(SCC(=O)N3CC(C)CC(C)C3)n2N)C1 (configuration not stated)	0.3	.
O=C(O)CCn1nnc(-c2cccs2)n1	-0.8	.
O=C1CN(C(=O)c2ccc(Br)cc2)c2ccccc2N1	-0.6	1.3
c1csc(C2Nc3ccccc3N2)c1	.	94
CC(NS(C)(=O)=O)C(c1cccs1)N1CCN(C)CC1 (configuration not stated)	0	1.1
Cc1ccc(C(=O)OCCOc2ccc(Br)cc2)cc1	-0.55	-0.07
O=C(Cn1nnc(N2CCCCC2)n1)N/N=C/c1cccnc1	-0.7	1
CCC(NC(=O)NCc1ccc2c(c1)OCO2)(C(F)(F)F)C(F)(F)F	-0.55	-0.35
CC(C)C(=O)NC(=S)Nc1ccc2oc(-c3cccnc3)nc2c1	0.5	1.8
O=C1CN(C(=O)Cc2ccc(F)cc2)C(c2ccc(F)cc2)c2cc(F)ccc2N1 (configuration not stated)	.	0.055
Nc1cc(Cl)ccc1Nc1ccncc1	-0.65	1.1
O=C(CSc1nccc(-c2csc(COc3ccccc3Cl)n2)n1)c1ccccc1	0.55	9.6
C#CC1(O)CN2CCC1CC2 (configuration not stated)	-0.15	0.18
O=C(Oc1ccccc1N1CCOCC1)c1cccnc1Sc1ccc(Cl)cc1	-0.1	-1.2
COc1ccc(-n2nnnc2SCC(=O)c2ccc3c(c2)OCCO3)c(OC)c1	0.05	.
Cc1cccc(N=CC=C2OC(C)(C)C(C)(C)O2)c1	0.3	-0.14
CCOc1ccc(C2C(C(=O)O)c3ccccc3C(=O)N2CCN2CCOCC2)cc1 (configuration not stated)	0.05	-1
Cc1cc2cc(CNS(C)(=O)=O)ccc2n1C	-0.45	0.88
CCOC(=O)C1=c2s/c(=C\c3cccnc3)c(=O)n2C(N)=C(C(=O)OC)C1c1cccnc1 (configuration not stated)	.	-0.63
CC1=C(C(=O)Nc2ccc(Cl)cc2)C(c2ccncc2)C(C#N)=C(SCc2ccccc2)N1 (configuration not stated)	.	0.19
CCN(CC)c1nc2c(C)cccn2c(=O)c1/C=N/O	0.25	-1.6
CC(=O)C1=NN(c2ccc(Cl)cc2)C2(S1)c1ccccc1C(c1ccc(Cl)cc1)=NN2c1ccccc1 (configuration not stated)	.	-0.79
C=CCOn1c(=O)c(=O)n(OCC=C)c2ccccc21	0.2	-0.6
Cc1cc(SCc2ncon2)c(Cl)cc1Cl	0.95	0.16
Cc1[nH]n(-c2ccccc2)c(=O)c1C(c1ccc(N(C)C)cc1)c1c(C)[nH]n(-c2ccccc2)c1=O	.	-0.89
O=C(O)C1C2CCC(C2)C1C(=O)O (configuration not stated)	-1.6	-0.14
CN(C(=S)NCc1ccccc1)C1CCCCC1	2.3	-1.3
CCOC(=O)c1c(NC(=O)c2ccc(OC)cc2)sc2c1CC(C)CC2 (configuration not stated)	-0.45	43
Cn1cnc(S(=O)(=O)N2CCCN(C(=O)OC(C)(C)C)CC2)c1	0.2	0.085
COc1ccc(-n2c3c(cc(C(N)=O)c2=O)C(=O)CCC3)cc1	1.1	.
Cn1cc(CCC(=O)NCc2ccccc2)c2ccccc21	-0.45	1
CN(C)c1nc2c(N)ncnc2n1C1OC(CO)C(O)C1O (configuration not stated)	.	-0.025
N#CCCn1nc(-c2ccc(Cl)cc2)cc1-n1c(C(F)(F)F)nc2ccccc21	0.45	.
CC(C)CC(=O)N1CCN(Cc2ccc3c(c2)OCO3)CC1	0.15	0.58
O=S(=O)(c1ccc(-c2ccccc2)cc1)N1CCOCC1	1.4	0.41
O=C(O)/C=C/c1ccc(Cl)cc1Cl	-0.35	.
c1ccc2c3c([nH]c2c1)C1(CCNCC1)NCC3	-0.7	-0.7
c1cn2cc(Cc3nnc4n3CCC4)nc2s1	0.05	0.28
CC(=O)Nc1ccccc1OCc1nnc(-c2ccccc2)o1	0.25	-1.1
Oc1c(N=Nc2ccccc2)cc2c3c1CCCN3CCC2	1.4	.
